ClpP mod – qHTS Assay for Activators of ClpP | 340,000 compounds, 1.9% hits | purified B. subtilis ClpP, FRET peptide cleavage, 20 min | AID 651965, 2013 | ATP-dependent Clp protease proteolytic subunit (Bacillus subtilis (strain 168)), P80244 | Potency, µM (highest dose often 57.5 µM), for inactives: at the top dose activity change, negative = active; active = well fitted falling curve with a large enough effect; inconclusive = small, poorly fitted or top-dose-only effect; inactive = no such curve, though single readings can be large or run the other way; also: potency is read from the fitted curve at half-maximal effect; the source files actives as falling curves though it sought activators and does not explain the sign; nearly all actives have a fitted effect of over 65% in size; many hits overshoot -100%
Target sequence (P80244 whole entry, looked up): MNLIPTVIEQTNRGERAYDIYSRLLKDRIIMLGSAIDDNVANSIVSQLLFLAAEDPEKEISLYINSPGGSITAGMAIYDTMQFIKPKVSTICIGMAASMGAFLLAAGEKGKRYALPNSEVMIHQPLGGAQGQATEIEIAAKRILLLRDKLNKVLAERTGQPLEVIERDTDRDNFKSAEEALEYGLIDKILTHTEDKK
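ClpP 10 microg/mL final, pH 8 Tris/KCl buffer with BSA, glycerol, Tween-20; compound pinned in; FRET-FV substrate; RT 20 min; Ex320/Em430; ΔFRET vs ADEP 5.8 microM, DMSO, no enzyme.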
TRPML1 blocker – qHTS for Inhibitors of the Human Mucolipin Transient Receptor Potential 1 (TRPML1); Mucolipin-1 (Homo sapiens), Q9GZU1; TRPML1-inducible cells, Ca2+ dye fluorescence, FDSS; hits give low values; inhibition of EC80 agonist-evoked calcium signal; activity change, negative = inhibition, % (concentration not given with the values); 390,000 compounds, 0.02% hits; AID 624415, 2012; in the data active means activity change below about -50%; inconclusive means about -30% to -50%; inactive means above about -30%;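 also: stimulus is agonist 54-4 at its EC80 concentration; % is scaled to controls: 0 for no effect and ±100 for the full control effect; the text of the record puts the active cut at -80%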
Target sequence (Q9GZU1 whole entry, looked up): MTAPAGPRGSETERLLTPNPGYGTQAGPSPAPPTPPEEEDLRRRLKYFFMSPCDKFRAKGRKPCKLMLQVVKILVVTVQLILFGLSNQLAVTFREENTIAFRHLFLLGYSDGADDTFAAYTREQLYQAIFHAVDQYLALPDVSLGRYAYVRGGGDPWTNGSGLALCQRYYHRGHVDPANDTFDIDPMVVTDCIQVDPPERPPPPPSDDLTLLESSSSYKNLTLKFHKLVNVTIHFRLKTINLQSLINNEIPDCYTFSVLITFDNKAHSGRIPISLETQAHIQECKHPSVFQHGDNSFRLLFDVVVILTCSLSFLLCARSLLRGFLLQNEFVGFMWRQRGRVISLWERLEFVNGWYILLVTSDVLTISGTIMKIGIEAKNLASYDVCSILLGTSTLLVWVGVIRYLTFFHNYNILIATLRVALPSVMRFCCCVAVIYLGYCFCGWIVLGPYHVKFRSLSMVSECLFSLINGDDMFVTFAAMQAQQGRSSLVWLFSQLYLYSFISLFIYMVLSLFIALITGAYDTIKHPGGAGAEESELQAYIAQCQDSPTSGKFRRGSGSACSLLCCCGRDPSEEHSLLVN
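TRPML1-DL cells, Tet-induced overnight (~16 h, 37 °C) at 1,500 cells/well, were loaded with Ca8 no-wash dye plus quencher for 45-90 min at room temperature. Compounds were pinned during FDSS kinetic reading; agonist 54-4 at EC80 (4 uM final) then added.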
Numbers without * were called inactive; ? = inconclusive. Some of the compounds tested. The share of hits here may be higher or lower than overall.

Sample of the layout (2 entries):
Screens in order: ClpP mod | TRPML1 blocker
> Cc1cccc(NC(=O)N2CCC(CN3CCc4ccccc4C3)CC2)c1C
    -2.6% | 41.4
> CC(C)CCNC(=O)c1ccc2c(c1)NC(=O)C(CS(=O)(=O)Cc1cccc(Br)c1)N2 (stereo not drawn)
    ? | -19.5

The list itself, repeating the preview:
Screens in order: ClpP mod | TRPML1 blocker
> Cc1cccc(NC(=O)N2CCC(CN3CCc4ccccc4C3)CC2)c1C
    -2.6% | 41.4
> CC(C)CCNC(=O)c1ccc2c(c1)NC(=O)C(CS(=O)(=O)Cc1cccc(Br)c1)N2 (stereo not drawn)
    ? | -19.5
> COc1cccc(CNC(=O)CSc2nc(=O)[nH]c3c2CCC3)c1
    -2.0% | -6.2
> Cc1cccc(NC(=O)Cn2nc(N3CCN(c4ccccc4)CC3)ccc2=O)c1C
    -15.4% | 0.3
> CSc1ncc(C(=O)N2CCN(c3ccc(Cl)cc3)CC2)c(C)n1
    -0.9% | 31.5
> COc1ccc(-c2nc(CN3CCC(C(=O)NCCCN4CCN(c5ccccc5F)CC4)CC3)c(C)o2)cc1OC
    -20.8% | 8.9
> COC(=O)c1ccccc1NC(=O)COCc1cc(-c2cccs2)on1
    -13.3% | 11.1
> CCOc1ccccc1NC(=O)Nc1cc(C(=O)NCc2ccc(C)cc2)ccc1N1CCCC1
    -3.9% | -5.5
> Cc1cc(C)cc(-n2ccnc2SCC(=O)Nc2cccc3ccccc23)c1
    -3.1% | -3.3
> O=C(NCCc1ccccc1)c1ccc2c(c1)N(Cc1ccccc1)C(=O)c1ccccc1S2=O (stereo not drawn)
    -3.7% | 4.3
> COc1cc(C(=O)N2CCC2(C)C(=O)O)cc(OC)c1OC (stereo not drawn)
    -3.7% | -7.3
> CN(C(=O)Cn1cc(S(=O)(=O)N2CCN(c3ccccc3F)CC2)c2ccccc2c1=O)c1ccc(Cl)cc1
    -11.5% | 47.4
> CCCCOc1ccccc1C(=O)Nc1onc2c1CCCC2
    -1.6% | -9.3
> O=C(OCc1cc(=O)n2nc(-c3cccs3)sc2n1)c1ccccc1
    -15.1% | -21.7
> CC(=O)Nc1ccc(NC(=O)C2CCN(c3cnccn3)CC2)cc1
    -8.3% | -16.6
> Cc1ccc2nc(C3CCCCC3)c(Cc3ccccc3)n2c1
    4.1% | 18.6
> COc1ccc(C)cc1N(C)C(=O)c1sc2nc3n(c(=O)c2c1C)CCCCC3
    0.4% | -11.6
> CCc1ccc(C2CC(=O)Nc3cc4c(cc32)OCO4)cc1 (stereo not drawn)
    -1.2% | -2.4
> CC(C)CNc1cc(NC2CCCCC2)c2c3c(onc13)-c1ccccc1C2=O
    2.8% | -2.2
> CCc1ccc(-c2[nH]c3c(c2-c2c(-n4cccc4)n(C)c(=O)[nH]c2=O)c(=O)[nH]c(=O)n3C)cc1
    0.1% | -13.1

(further entries)
Screens in order: ClpP mod | TRPML1 blocker
> Cc1ccc(C)c(NC(=O)C2CCN(c3ncnc4c3nc3n4CCCCC3)CC2)c1
    -1.4% | -1.3
> Cc1cccc(NC(=O)CSc2nc3ccc(NC(=O)c4ccco4)cc3s2)c1
    97.5% | 12.7
> CCOc1ccc(N(CC(=O)Nc2ccc(F)cc2F)S(=O)(=O)c2c(C)[nH]c(=O)[nH]c2=O)cc1
    -0.3% | -14.3
> CCOc1ccccc1NC(=O)Cn1ncc2c(=O)oc3ccc(C)cc3c21
    -7.7% | -8.0
> CCOc1ccc(-c2cc3c(=O)n(Cc4nc(-c5ccc(OC(C)C)cc5)oc4C)ccn3n2)cc1Cl
    -0.6% | 11.6
> O=C1c2[nH]nc(-c3ccccc3)c2C(c2ccccc2)N1c1cccc(C(F)(F)F)c1 (stereo not drawn)
    -19.3% | 21.6
> COc1cccc(-c2cc(C(=O)Nc3c(C)nn(Cc4ccccc4Cl)c3C)no2)c1
    0.2% | -28.0
> Cc1ccc(CSc2oc(-c3cccs3)nc2S(=O)(=O)c2ccccc2)cc1
    -2.9% | 0.4
> CCOc1ccccc1C(=O)Nc1nc2c(s1)CC(C)CC2 (stereo not drawn)
    4.1% | -16.6
> CCSc1nnc2c(n1)OC(c1ccc(C)s1)Nc1ccccc1-2 (stereo not drawn)
    4.1% | 19.5
> CC1(C(=O)Nc2cccc(C#N)c2)CCN1C(=O)CCc1ccccc1 (stereo not drawn)
    3.8% | -10.2
> Cc1cccc(CSc2cn(CC(=O)N3CCCC3)c3ccccc23)c1
    -1.3% | 18.9
> CCOc1ccc(-c2cc3nc(C4CCN(C(=O)OC(C)(C)C)CC4)c(C(=O)Nc4ccc(C)c(F)c4)cn3n2)cc1
    -20.7% | -18.5
> CC1=C(C(=O)Nc2cccnc2)C(c2cccc(Br)c2)n2nc(SCc3ccccc3)nc2N1 (stereo not drawn)
    4.7% | 29.4
> CC1=C(C(=O)N(C(C)C)C(C)C)CC(CC(=O)NCCc2ccccn2)C(=O)N1Cc1ccc(F)cc1 (stereo not drawn)
    -3.5% | -7.0
> CCc1nn2c(=O)cc(COC(=O)c3ccc(NC(=O)COc4ccc(C)cc4)cc3)nc2s1
    ? | -1.5
> CC1CCN(C(=O)CN2c3ccc(C(C)C)cc3-c3ccccc3S2(=O)=O)CC1
    1.4% | -12.5
> COc1ccc(NCc2cccn2-c2nnc(N3CCCCC3)s2)cc1OC
    -1.7% | -28.8
> O=C(CCCCn1c(=O)c2ccccc2n(Cc2cccc(F)c2)c1=O)NCc1ccc2c(c1)OCO2
    -14.9% | 3.9
> COc1ccc(NC(=O)CCS(=O)(=O)c2nc(-c3ccc4c(c3)OCO4)cc(C(F)(F)F)n2)cc1OC
    -17.6% | 7.8

Arranged by value in TRPML1 blocker (high to low): some entries from above.
mol | TRPML1 blocker
COc1ccc(NC(=O)CCS(=O)(=O)c2nc(-c3ccc4c(c3)OCO4)cc(C(F)(F)F)n2)cc1OC | 7.8
CCc1nn2c(=O)cc(COC(=O)c3ccc(NC(=O)COc4ccc(C)cc4)cc3)nc2s1 | -1.5
CCOc1ccc(-c2cc3nc(C4CCN(C(=O)OC(C)(C)C)CC4)c(C(=O)Nc4ccc(C)c(F)c4)cn3n2)cc1 | -18.5

Following part
Screens in order: ClpP mod | TRPML1 blocker
> CCCN1C(=O)C(Cc2nc3ccccc3c(=O)n2CC)c2cc(Br)ccc21 (stereo not drawn)
    -1.6% | 11.0
> Cc1cccc(CSc2ncc(Cl)c(C(=O)Nc3nc4ccc(F)cc4s3)n2)c1
    0.4% | 10.0
> CC(=O)Nc1ccc(NC(=O)CN2C(=O)CCc3cc(S(=O)(=O)N4CCCCC4)ccc32)cc1
    0.0% | 26.3
> O=C(c1cnc(N2CCOCC2)c2ccccc12)N1CCN(c2ccc(F)cc2)CC1
    -8.5% | -6.7
> CCN(CC)c1cc(C)c2cc(NC(=O)/C=C/c3cc(OC)c(OC)c(OC)c3)ccc2n1
    -4.3% | -1.1
> CCc1ccc2oc(-c3cc(NC(=O)C(C)C)cc(C)c3O)nc2c1
    -2.8% | 23.2
> CCOc1ccc(CCNC(=O)C2CCN(C(=O)N3CC(CC)Oc4ccc(C)cc43)CC2)cc1 (stereo not drawn)
    -1.7% | 2.9
> CC1CCN(S(=O)(=O)c2cn(CC(=O)Nc3ccc(F)cc3)c(=O)c3ccccc23)CC1
    -7.4% | -9.1
> CCc1ccccc1NC(=O)CN(c1ccc(OC)cc1)S(=O)(=O)c1c(C)n[nH]c1C
    -0.3% | 1.3
> Cc1ccc(-c2nc(CS(=O)(=O)CC(=O)NCc3ccc(Cl)cc3)c(C)o2)cc1
    -12.3% | 25.4
> CCOc1ccc(NC(=O)CC2C(=O)N(c3ccc(Cl)cc3)C(=O)N2Cc2cccs2)cc1 (stereo not drawn)
    -1.0% | 8.9
> CC(Nc1ccc(-c2nc(-c3ccco3)no2)cc1[N+](=O)[O-])c1ccccc1 (stereo not drawn)
    1.1% | -10.9
> Cc1cccc(CC(=O)N2CC(=O)Nc3ccc(C)cc3C2c2ccc(F)cc2)c1 (stereo not drawn)
    -2.1% | 3.8
> Cc1ccc(N2CC(C)Cn3c2nc2c3c(=O)n(CC(=O)O)c(=O)n2C)cc1 (stereo not drawn)
    ? | 35.3
> O=c1[nH]c(SCc2ccccc2)nc2c1CCCC2
    0.0% | -4.8
> O=C(CCC1N=C2c3ccccc3N=C(SCc3ccc(F)cc3)N2C1=O)NCCc1ccccc1 (stereo not drawn)
    -2.5% | 23.2
> Cc1cn([C@H]2C[C@H](O)[C@@H](/C=C/C(=O)NCCc3ccc4ccccc4c3)O2)c(=O)[nH]c1=O
    1.7% | 2.3
> Cc1cc(C)n(-c2nc3ccccc3nc2Nc2cccc(C(F)(F)F)c2)n1
    -22.3% | 26.6
> COc1ccc(CC(=O)NCc2ccc3c(c2)CCN3C(=O)c2ccccc2)cc1OC
    0.4% | -14.7
> CCOc1ccc(-c2cc(NC(=O)c3cccc(Cl)c3)c(C(=O)OC)s2)cc1
    -11.6% | ?

Going on with the list.
Screens in order: ClpP mod | TRPML1 blocker
> CCCCC1CCC(C(=O)N2CC(=O)Nc3ccc(F)cc3C2c2ccc(F)cc2)CC1 (stereo not drawn)
    -2.3% | 14.6
> COc1cccc(NC(=O)CNC(=O)Cn2c(C)cc3ccccc3c2=O)c1
    -2.7% | 42.1
> COc1cccc(NC(=O)c2c(C)nn(-c3cccc(C)c3)c2-n2cccc2)c1
    -26.0% | -10.4
> O=C(Nc1ccc2nc(SCC(=O)N3CCOCC3)sc2c1)c1ccc(Br)cc1
    124.7% | 29.5
> COc1cc(C2c3c(-c4ccccc4O)n[nH]c3C(=O)N2Cc2ccncc2)cc(OC)c1OC (stereo not drawn)
    0.6% | 15.6
> COc1ccc(Cl)cc1N(C)C(=O)c1ccc2c(=O)n3c(nc2c1)CCCCC3
    -1.9% | -2.9
> CCOC(=O)C1=C(CN2CCN(c3cc(C)ccc3C)CC2)NC(=O)NC1c1ccc(Cl)cc1 (stereo not drawn)
    -1.3% | -6.7
> CCN(Cc1ccccc1)C(=O)C1CCN(S(=O)(=O)c2ccc3c(c2)CCCN3C(C)=O)CC1
    0.6% | -3.4
> CC(C)c1ccc(S(=O)(=O)c2nnn3c2nc(NC2CCCC2)c2sccc23)cc1
    ? | 19.3
> Cc1ccc(Cl)cc1NC(=O)CN1C(=O)COc2ccc(S(=O)(=O)N3CCCCCC3)cc21
    1.0% | -0.4
> CCOC(=O)c1sc(N2C(=O)c3oc4ccc(C)cc4c(=O)c3C2c2ccccc2F)nc1C (stereo not drawn)
    -4.9% | 38.9
> COc1cccc(NS(=O)(=O)c2cc3c4c(c2)C(C)C(=O)N4CCC3)c1 (stereo not drawn)
    -1.0% | 4.9
> CNC(=O)COc1ccc(NC(=O)CCn2nc(-c3ccc(C)cc3)c3ccccc3c2=O)cc1
    4.8% | 2.5
> COc1ccc(NC(=O)CC2C(=O)N(c3ccccc3)C(=O)N2Cc2cccnc2)cc1 (stereo not drawn)
    0.1% | -0.8
> CC(=O)c1ccc(NC(=O)CSc2nc(-c3cccc(F)c3)nc3c2c(=O)n(C)c(=O)n3C)cc1
    -1.4% | -13.9
> O=C(CN1C(=O)c2cccc3cccc1c23)Nc1cccc(F)c1
    -10.3% | -14.6
> O=C(NCc1ccccc1)C1CCN(S(=O)(=O)c2ccc3c(c2)CCCN3C(=O)C2CCC2)CC1
    -5.1% | -13.6
> O=C(Nc1ccc(Cl)c(Cl)c1)N1CCC(c2ccccc2)C1 (stereo not drawn)
    -0.4% | 58.5
> CCSc1oc(-c2ccc(F)cc2)nc1S(=O)(=O)c1ccc(C)cc1
    ? | 38.7
> Cc1cc(C)c(NC(=O)c2cc3sc(Cl)cc3n2C)c(C)c1
    -5.2% | 4.0

Continuation:
Screens in order: ClpP mod | TRPML1 blocker
> Cc1cc(=O)n2[nH]c(NCc3ccc(F)cc3)nc2n1
    -19.1% | -1.8
> CCOC(=O)c1c(C)[nH]c(CCC(=O)Nc2ccccc2C(=O)OC)c1C
    -2.1% | 7.8
> O=C(CSc1nc2ccccc2nc1Cc1ccccc1)Nc1ccc2c(c1)OCO2
    0.6% | 35.1
> COc1ccc2cc(S(=O)(=O)c3ccccc3F)c(=O)oc2c1
    4.6% | -7.2
> COc1ccc2nc(N(Cc3cccnc3)C(=O)C3COc4ccccc4O3)sc2c1 (stereo not drawn)
    1.9% | 29.0
> CCN1CCN(c2cc(C)c3cc(NC(=O)c4cc(Br)ccc4Cl)ccc3n2)CC1
    -12.6% | 14.4
> CCc1nn(CC(=O)N2CCN(c3ccc(OC)cc3)CC2)c(=O)c2cc3sccc3n12
    -0.8% | -10.2
> O=C(NCc1ccccc1Cl)c1cc2c(s1)-c1ccccc1SC2
    25.1µM* | 26.5
> Cc1ccc(C)c(S(=O)(=O)NCC(c2ccc(N(C)C)cc2)N2CCOCC2)c1 (stereo not drawn)
    -1.0% | -2.5
> Clc1ccccc1-c1nnc(-c2ccccc2CNc2ccc(Br)cc2)o1
    -3.5% | 4.3
> CC(C)CCNC(=O)C1CCN(C(=O)c2cc3sccc3n2Cc2ccc(Cl)cc2)CC1
    -0.8% | -0.2
> COc1ccc(-c2c(C)c3ccc(O)c(CN4CCN(CCO)CC4)c3oc2=O)cc1OC
    4.2% | 17.3
> COc1ccccc1C(=O)Nc1ccc(C(=O)OCc2cc(=O)n3c4c(sc3n2)CCCC4)cc1
    -6.7% | -9.4

Screening data from PubChem BioAssay.
